LANA-H2A inh: blockers of LANA interaction with H2A/H2B – biochemical, FP readout, HTS, primary screen. Protein LANA1 (Human herpesvirus 8 type P (isolate GK18)), Q9QR71. cell-free LANA-H2A/H2B peptide, fluorescence polarization. inhibition, % (concentration not given with the values). actives 0.6% (n = 320,000). AID 2629, 2010; in the data active = inhibition mostly above about 10%, no sharp cut-off; inactive = mostly below about 6.7%;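 also: stock transfer was 7.5 nL into about 10 µL; 0% = median of vehicle wells and 100% = median of positive control wells; one replicate is shown; the record names a cut of 25% in any replicate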
UCH37 inh: inhibitors of human UCH37 deubiquitinase, primary screen, biochemical, Ub-AMC cleavage, fluorescence | actives 0.33% (n = 330,000) | Ubiquitin carboxyl-terminal hydrolase isozyme L5 (Homo sapiens), Q9Y5K5 | purified proteasome/UCH37 | inhibition, % (concentration not given with the values);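 active = mean of two replicates above 20%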;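 also: 0% = compound-free wells with enzyme and 100% = wells lacking proteasome; stock transfer was 100 nL into about 20 µL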
Target sequence (Q9Y5K5 whole entry, looked up): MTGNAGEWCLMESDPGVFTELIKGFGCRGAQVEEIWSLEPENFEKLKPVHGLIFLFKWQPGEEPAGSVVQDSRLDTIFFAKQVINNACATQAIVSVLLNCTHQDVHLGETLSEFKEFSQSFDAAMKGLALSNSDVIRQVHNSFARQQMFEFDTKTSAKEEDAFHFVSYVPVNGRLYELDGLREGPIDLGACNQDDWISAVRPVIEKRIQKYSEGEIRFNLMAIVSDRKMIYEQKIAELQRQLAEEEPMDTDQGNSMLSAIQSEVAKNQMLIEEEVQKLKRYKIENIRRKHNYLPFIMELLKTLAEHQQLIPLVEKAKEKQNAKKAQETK
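assay system = human UCH37 enzyme supplied as purified proteasome complex | amount = proteasome at 0.15 nM in the dispensed enzyme solution | schedule = 30 min compound-proteasome preincubation then 25 min substrate reaction, room temperature | measured by = fluorescence, ex 355 nm, em 460 nm | benchmarks = no-proteasome wells (full inhibition) and compound-free wells (no inhibition)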
Beta cell apopt: inhibitors of cytokine-induced beta cell apoptosis, primary screen, luminescence; actives 0.8% (n = 300,000); AID 435005, 2010; INS-1E cytokine-induced death, ATP luminescence, 48 h; percent of positive-control rescue, neutral wells zero; protection from apoptosis, % (no concentration beside the values);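 active = all replicates at 75% or more, or half of them and the mean; inconclusive = half reach 75% but not the mean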;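 also: 0% = cytokine-treated negative control wells and 100% = positive control rescue; higher means more ATP so stronger rescue from cytokine killing; wells of about 40 µL received 100 nL stock; the first replicate is given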
T cruzi repl: inhibitors of intracellular T. cruzi growth, primary screen, luminescence, NIH3T3 host cells. AID 1885, 2009. T. cruzi beta-gal in NIH3T3, 90 h. actives 1.4% (n = 300,000). inhibition, % (no concentration beside the values);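 active = mean inhibition across valid replicates above about 55%, limit read from the data; inconclusive = mean below that limit but half or more replicates reach it; inactive = mean below it, under half of replicates reach it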;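 also: signal also drops with host cell toxicity which is not excluded here; 0% = plate median of DMSO wells and 100% = zero luminescence signal; higher percent means less beta-gal luminescence so fewer parasites; stock transfer was 50 nL into about 50 µL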
RanGTP-Imp inh: inhibitors of RanGTP-importin-beta interaction, primary screen, biochemical, FRET, CFP-Ran, YFP-importin-beta, homogeneous; cell-free CFP-Ran/YFP-importin-beta FRET ratio; inhibition, % (concentration not given with the values); AID 2216, 2009; actives 1.1% (n = 300,000);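 active = most replicates above 15%; inconclusive = exactly half above 15%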;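 also: 0% = DMSO wells and 100% = Ran loaded with GDP instead of GTP; wells of about 40 µL received 100 nL stock; the first replicate is given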
Calb FLC: C. albicans growth inhibition with fluconazole, primary screen, CaCi-2 strain, Alamar Blue fluorescence; C. albicans CaCi-2 (fluconazole-resistant clinical isolate) + fluconazole, 48 h; growth inhibition, % (concentration not given with the values); actives 0.57% (n = 300,000); AID 1979, 2009;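 active = most replicates above 75%; inconclusive = exactly half above 75%; inactive = most below 75%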;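 also: all wells also contain fluconazole at 8 µg/ml as a sub-toxic cotreatment; 0% = median of DMSO wells and 100% = median of geldanamycin control wells; wells of about 8 µL received 7.5 nL stock; the first replicate is given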
B2AR ag: beta2AR agonists driving receptor internalization, primary screen, cell-based, FAP fluorogen, flow cytometry; Am2.2-beta2AR cells; reference of the scale not given here; actives 0.43% (n = 340,000); response, % (no concentration beside the values);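 active = response above a set limit, near 3 SD of response in nonfluorescent compounds, cut at about 42% in these data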;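 also: stock transfer was 100 nL into about 11 µL; a reference agonist was the positive control; negative values mostly stem from fluorescent compounds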
Target sequence (P07550 whole entry, looked up): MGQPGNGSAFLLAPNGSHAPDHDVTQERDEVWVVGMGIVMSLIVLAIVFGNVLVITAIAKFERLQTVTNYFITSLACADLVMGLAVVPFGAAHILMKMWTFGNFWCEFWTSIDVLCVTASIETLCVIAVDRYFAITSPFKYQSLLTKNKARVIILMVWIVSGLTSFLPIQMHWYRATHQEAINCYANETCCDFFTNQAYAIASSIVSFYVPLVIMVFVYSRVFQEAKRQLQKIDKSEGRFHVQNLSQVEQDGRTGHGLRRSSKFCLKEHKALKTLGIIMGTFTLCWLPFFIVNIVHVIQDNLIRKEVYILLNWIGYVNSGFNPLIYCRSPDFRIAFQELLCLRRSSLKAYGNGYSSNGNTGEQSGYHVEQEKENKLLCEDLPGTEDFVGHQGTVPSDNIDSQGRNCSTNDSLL
A1 inh: caspase 3/7 activation in MEF A1-2A-BIM cells, primary screen, A1 inhibitor project, cell-based, luminescence, HTS; Caspase-Glo 3/7 luminescence, 3 h; percent of clofoctol response, vehicle zero; caspase activation, % (concentration not given with the values); actives 0.066% (n = 330,000);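 active = over half of replicate activation scores above 10%, or exactly half above 10 with the replicate mean above 10; inconclusive = replicate mean below 10 yet half the replicates above 10; inactive = over half of replicates below 10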;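 also: wells of about 30 µL received 50 nL stock; many hits fall short of the cut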
* hit, by the source's call; i = inactive; ? = inconclusive; / = not tested or not shown.

SMILES | LANA-H2A inh | UCH37 inh | Beta cell apopt | T cruzi repl | RanGTP-Imp inh | Calb FLC | B2AR ag | A1 inh
CC(SC1=NCCS1)C(=O)Nc1nnc(-c2ccc(F)cc2)s1 (stereo not given) | -11 | 2.1 | -1 | -28 | 0.5 | 5 | 1 | -2.5
Clc1cc(-c2ccccc2)nc(-c2ccccc2)n1 | -0.1 | 7.3 | 2 | 2 | -4.3 | 1 | -14 | -0.1
Cc1cc(C)n2nc(SCC(=O)N(C)c3ccccc3)nc2n1 | -3.9 | -1.9 | / | -1 | 0.9 | 0 | -11 | 1.0
COc1ccccc1CO/N=C/NC(=O)c1c(OC)ccnc1Oc1ccc(F)cc1 | 1.9 | 0.5 | -4 | 13 | 1.3 | -35 | -6 | -0.1
COc1ccc(C(=O)N2N=C(c3cccc(OC)c3)CC2(O)C(F)(F)F)cc1 (stereo not given) | -4.1 | 3.5 | 2 | 12 | 3.5 | -34 | -2 | 0.3
CCC(C)NC(=O)C1CCN(c2nc(C)cc(C)n2)CC1 (stereo not given) | 4.9 | -2.0 | -3 | -9 | 0.3 | -36 | -1 | -0.2
O=C(COc1ccc2c(c1)OCO2)Nc1nccs1 | -0.3 | 1.8 | 3 | 4 | -1.5 | 21 | -7 | -12
O=C(c1cccnc1)n1nc(-c2ccco2)nc1NCc1cccs1 | / | 0.4 | / | -9 | -4.6 | 2 | -9 | /
O=C(CSc1nc(C(F)(F)F)cc(=O)[nH]1)N1CCCCCC1 | 1.8 | 0.9 | / | 6 | 0.0 | -8 | 0 | 0.0
CC(C)c1ccc(NC(=O)[C@H]2CSCN2C(=O)[C@@H]2CCC(=O)N2)cc1 | -0.7 | 2.4 | -3 | -11 | -0.9 | 9 | 10 | 0.3
COc1cc(NC(=O)c2ccc(CNc3c(N4CCOCC4)c(=O)c3=O)cc2)cc(OC)c1 | 0.8 | 6.5 | 4 | -3 | -1.2 | 7 | -6 | 0.3
Cc1cc(F)ccc1NC(=O)c1cc(S(=O)(=O)N2CCCC2)cn1C | -0.9 | 2.8 | 1 | -5 | 0.9 | 10 | -12 | 0.6
CCNC(C(=O)c1c[nH]c2c(CC)cccc12)c1ccccc1 (stereo not given) | -1.5 | 1.1 | -4 | 29 | -1.1 | -1 | 13 | 0.3
O=C(NCCCNC(=O)c1ccccn1)c1ccccn1 | -4.2 | 5.4 | -3 | 0 | 8.0 | 2 | -5 | -0.1
CCSc1nnc(Cc2cc(=O)[nH]c(=O)[nH]2)n1-c1cccc(C)c1 | -3.9 | 2.1 | 1 | 5 | 9.2 | 3 | 4 | -0.1
Cc1nc(NC(C)C)c2cnn(CCc3ccccc3)c2n1 | 5.5 | 1.1 | 0 | 8 | 3.5 | 6 | 10 | -0.6
O=C(NC1CCN(Cc2ccccc2)CC1)C1CCN(S(=O)(=O)c2cccc3cccnc23)CC1 | -0.4 | 5.2 | / | 48 | 0.2 | -2 | -6 | -0.2
CC(=O)C1=C(C)NC(=O)NC1c1ccc(OC2CCCC2)cc1 (stereo not given) | 3.9 | 0.7 | 2 | 12 | 2.9 | 0 | -16 | 0.6
COC(=O)Cc1ccc(O)c(N)c1 | -2.7 | 0.0 | -3 | -18 | 1.0 | 4 | 0 | -0.4
Cc1ccc(NC(=O)CSC2=Nc3ccccc3C3CC=NN23)c(C)c1 (stereo not given) | 4.1 | 11 | -1 | -9 | -0.5 | -1 | 10 | 0.2
Cn1ncc(N=Cc2ccccc2)c1C(=O)Nc1cccc(Cl)c1 | 0.9 | 1.9 | 1 | -3 | 3.2 | 5 | -1 | -0.5
CC(C)c1ccc(CNc2ccc(N3CCOCC3)cc2)cc1 | 3.9 | -2.6 | 4 | 11 | -3.5 | -3 | 1 | -0.1
O=C(Cn1c(NCCCO)nc2ccccc21)c1cccc(Br)c1 | -1.6 | 3.5 | 17 | -7 | 2.2 | 1 | -19 | 1.4
COc1ccccc1C(c1nnnn1CCc1ccccc1)N1CCN(c2ccccc2)CC1 (stereo not given) | -0.3 | 0.9 | 17 | 37 | ? | -6 | 6 | 0.1
CCOC(=O)C1(Cc2cccc(Cl)c2)CCCN(C(=O)c2cc(C(C)C)nn2C)C1 (stereo not given) | -11 | 3.2 | / | 30 | 3.3 | 3 | 7 | 0.1
O=C(NC1CC1)C1CCN(C2CCN(C(=O)CCOc3ccccc3)CC2)CC1 | -1.8 | 2.1 | 1 | -1 | 0.5 | 13 | 0 | -0.3
Cn1c(CSCCOc2ccccc2)n[nH]c1=S | -1.3 | 4.4 | -2 | 9 | 1.2 | -7 | 4 | 0.2
O=C(Nc1nnc(-c2cccnc2)s1)c1cccs1 | 0.0 | 11 | 2 | 3 | ? | 22 | -2 | -5.8
CC(C)N1CCC2(CC1)N=C(c1ccc3c(c1)OCO3)CC(c1cc(Cl)ccc1O)N2 (stereo not given) | -4.3 | 3.9 | 9 | 6 | -5.1 | -5 | 17 | -0.4
CCOc1ccc(NC(=S)N2CCC(NC(=O)C3CCCCC3)CC2)cc1 | -3.6 | 0.9 | -4 | -2 | 5.3 | 42 | 1 | 0.0
CCCCN(C(=O)CCC(=O)Nc1cc(C)on1)C(C(=O)NC(C)(C)CC)c1cccc(OC)c1OC (stereo not given) | 6.9 | 2.2 | 3 | 11 | -3.1 | 2 | 0 | 0.5
Cc1nn2c3ccccc3nc2n(C)c1=O | / | 2.7 | / | -5 | 6.3 | 12 | -4 | /
CCCCCN(C(=O)CCC(=O)OCc1ccccc1C(F)(F)F)c1c(N)n(CCCC)c(=O)[nH]c1=O | 5.2 | / | 1 | 6 | 2.9 | -1 | -1 | -0.7
C=CCn1c(SCC(=O)NC2CCCCC2)nnc1-c1ccccn1 | -1.8 | -0.8 | -6 | 18 | 0.3 | 3 | -7 | 0.1
CCOC(=O)c1c(NC(=O)CSc2nnc(-c3ccc(Cl)cc3)o2)sc2c1CCC2 | 0.9 | -3.2 | -2 | -8 | -1.0 | -16 | -2 | -0.2
CC(/C=N\NC(=O)c1cc(C)oc1C)=C\c1ccccc1 | 2.5 | / | 8 | -3 | -2.2 | -4 | 2 | -5.4
CN(C)CCNC(=O)c1onc(CSc2ccc(F)cc2)c1C(=O)NCCN(C)C | 5.0 | -0.1 | 1 | 26 | ? | 6 | 4 | 0.0
O=C(c1ccccc1[N+](=O)[O-])N1CCCC(C(=O)N2CCCCCC2)C1 (stereo not given) | 1.2 | 6.3 | / | -4 | ? | -9 | -4 | -0.8
NS(=O)(=O)c1ccc(CCNc2cc(=O)n(Cc3ccc(F)cc3)c(=O)[nH]2)cc1 | 6.9 | -2.7 | -2 | / | / | / | -2 | 0.1
O=C(c1cc(COc2ccc(F)c(F)c2)on1)N1CCN(C2CCCCC2)C(=O)C1 | 6.4 | -0.4 | 2 | -12 | -0.2 | 2 | -7 | 1.0
O=C(Nc1nc(-c2ccc3c(c2)OCCO3)cs1)c1ccco1 | 3.2 | / | 3 | -1 | -1.0 | 13 | 1 | -8.3
CCN1CCN(CC(O)COCC2COc3ccccc3O2)CC1 (stereo not given) | 1.0 | 2.5 | -5 | 1 | -1.2 | 7 | -6 | 0.5
CCc1ccc(OCCNC(=O)c2ccccc2SCc2ccc(F)cc2)cc1 | 1.1 | 5.2 | 3 | 57* | -4.1 | 1 | 6 | -0.1
COc1ccc(CNC(=O)CN(c2ccc(C)cc2)S(=O)(=O)c2c(C)noc2C)cc1 | 1.9 | 7.2 | 0 | 16 | 0.6 | -3 | 2 | -2.6
Cc1cn(CC(=O)c2ccccc2)c2ccccc12 | -1.4 | 2.8 | -2 | 2 | 1.3 | -12 | 14 | -0.3
CC(=O)CC(=O)Nc1ccccc1NC(C)=O | 2.1 | 1.2 | -26 | -17 | -4.6 | -2 | 11 | -0.9
NC(=O)CC(NC(=O)c1ccccc1)c1ccc(N2CCCCCC2)c([N+](=O)[O-])c1 (stereo not given) | 2.2 | 4.6 | 0 | -11 | -2.8 | 13 | -7 | 0.2
N#CCCN(C(=O)COC(=O)CCC(=O)c1cccs1)c1ccccc1 | 0.2 | 0.8 | -1 | / | / | / | 3 | -0.1
O=C(NNC(=S)NC(=O)c1cn(-c2ccccc2)nc1-c1ccccc1)c1ccncc1 | -8.6 | 5.4 | 8 | 45 | -1.5 | 7 | -12 | -0.1
CCC(=O)N1CCCc2cc(S(=O)(=O)CCC(=O)Nc3ccccc3C)ccc21 | 8.1 | -0.6 | -5 | -8 | -2.3 | 2 | -8 | 0.5
NC(=O)c1c(NC(=O)c2ccccc2Cl)sc2c1CCC2 | -0.2 | 0.1 | -6 | 18 | 1.2 | 7 | 5 | -1.0
COc1ccc2c(c1)OC[C@H]1[C@H]2N2C(=O)CN(Cc3ccco3)C(=O)[C@@]2(C)[C@H]1c1ccccc1 | -9.2 | 2.9 | -2 | / | / | / | -7 | -0.9
CC(C)CCN(C(=O)C1=COCCO1)c1c(N)n(Cc2ccccc2)c(=O)[nH]c1=O | 5.8 | 1.3 | 8 | -1 | -0.1 | -4 | 2 | -0.3
Nc1nonc1-n1nnc(C(=O)N/N=C/c2ccccn2)c1CNc1ccccc1 | 5.3 | / | -5 | -9 | -3.4 | 9 | -12 | 1.0
O=C(NCCCNC(=O)c1ccco1)c1ccco1 | 0.0 | 1.7 | -2 | -7 | 2.8 | -12 | -7 | -0.8
CCOC(=O)c1c(C)nc2sc3c(=O)n(-c4ccc(OC)cc4)nnc3c2c1-c1ccc(OC)cc1 | -4.8 | 0.0 | 21 | 33 | 2.1 | 9 | 6 | -0.4
O=C1c2ccccc2C(=O)N1SC1CCCCC1 | 4.3 | -1.2 | 7 | -6 | -3.1 | -2 | -2 | ?
COc1cc(NC(=O)C2CC(=O)N(Cc3ccco3)C2)c(OC)cc1Cl (stereo not given) | -1.9 | -0.2 | 6 | / | / | / | -5 | -0.1
CCSc1ccc(-c2nn(-c3ccccc3)cc2/C=C(/C#N)C(=O)NCCCOC)cc1 | 2.7 | i | -1 | / | / | / | -10 | 0.5
CCCCNC(=O)c1onc(CSc2cccc(C)c2)c1C(=O)O | 9.4 | -3.5 | -17 | -1 | 7.1 | -12 | -2 | -1.0
CCOC(=O)N1CCC(NC(=O)CSc2cc(=O)n(CC)c3ccccc23)CC1 | 4.2 | 2.7 | -5 | 0 | 0.5 | -8 | -2 | 0.2
O=C(OCc1ccc(Br)cc1F)c1cc2ccccc2oc1=O | -5.6 | -13 | 1 | -10 | -0.1 | -3 | 10 | -1.0

This is a random part of the collection, and some 4.3% of all compounds hit somewhere here.
